HNF4A DNA FP – change in binding of human HNF4 alpha to DNA. P41235. HNF4a-FITC DNA binding, fluorescence polarization, 1 h. activity change, % at 10 µM. hit rate 0.3% among 360,000; in the data active = activity change above about 30%, passing the limit was not always enough;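 note: controls were the assay level and a saturating level of protein; the project sought stronger binding though the title names inhibitors; some compounds called inactive have numbers as strong as hits; positive values seem to mean higher polarization but the record does not say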
Target sequence (P41235 whole entry, looked up): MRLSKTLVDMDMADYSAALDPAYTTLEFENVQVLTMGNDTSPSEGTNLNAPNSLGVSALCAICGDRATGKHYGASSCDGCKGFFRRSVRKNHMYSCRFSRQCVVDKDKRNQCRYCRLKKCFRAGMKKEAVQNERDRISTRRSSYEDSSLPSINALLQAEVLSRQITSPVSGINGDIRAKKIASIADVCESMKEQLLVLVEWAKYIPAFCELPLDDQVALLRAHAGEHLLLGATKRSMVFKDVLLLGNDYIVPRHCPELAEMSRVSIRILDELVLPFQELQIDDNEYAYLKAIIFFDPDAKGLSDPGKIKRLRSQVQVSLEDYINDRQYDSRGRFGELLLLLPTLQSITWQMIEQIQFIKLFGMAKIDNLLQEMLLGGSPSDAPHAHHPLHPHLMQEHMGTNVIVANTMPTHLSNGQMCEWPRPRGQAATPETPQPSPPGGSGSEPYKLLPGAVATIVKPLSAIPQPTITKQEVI
RanGTP-Impb inh – inhibitors of RanGTP-importin-beta interaction, primary screen, biochemical, FRET, CFP-Ran, YFP-importin-beta, homogeneous; cell-free CFP-Ran/YFP-importin-beta FRET ratio; inhibition, % (no concentration beside the values); hit rate 1.1% among 300,000; AID 2216;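 active = most replicates above 15%; inconclusive = exactly half above 15%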;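 note: 0% = DMSO wells and 100% = Ran loaded with GDP instead of GTP; wells of about 40 µL received 100 nL stock; the first replicate is given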
AF4-AF9 inh – inhibitors of human MLL-AF4/AF9 interaction; P42568; AlphaScreen, biotin-AF4 peptide binding to FLAG-AF9; inhibition, % at 10 µM; hit rate 0.47% among 350,000; AID 651704;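 active = every replicate reaching a set inhibition limit, whatever the replicate mean, cut at about 25% in these data; inconclusive = mean inhibition reaches that limit but some replicates miss it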;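 note: 0% = plate neutral control median and 100% = total signal loss; the record names both 10 and 1 µM as test concentration; the first replicate is given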
Target sequence (P42568 whole entry, looked up): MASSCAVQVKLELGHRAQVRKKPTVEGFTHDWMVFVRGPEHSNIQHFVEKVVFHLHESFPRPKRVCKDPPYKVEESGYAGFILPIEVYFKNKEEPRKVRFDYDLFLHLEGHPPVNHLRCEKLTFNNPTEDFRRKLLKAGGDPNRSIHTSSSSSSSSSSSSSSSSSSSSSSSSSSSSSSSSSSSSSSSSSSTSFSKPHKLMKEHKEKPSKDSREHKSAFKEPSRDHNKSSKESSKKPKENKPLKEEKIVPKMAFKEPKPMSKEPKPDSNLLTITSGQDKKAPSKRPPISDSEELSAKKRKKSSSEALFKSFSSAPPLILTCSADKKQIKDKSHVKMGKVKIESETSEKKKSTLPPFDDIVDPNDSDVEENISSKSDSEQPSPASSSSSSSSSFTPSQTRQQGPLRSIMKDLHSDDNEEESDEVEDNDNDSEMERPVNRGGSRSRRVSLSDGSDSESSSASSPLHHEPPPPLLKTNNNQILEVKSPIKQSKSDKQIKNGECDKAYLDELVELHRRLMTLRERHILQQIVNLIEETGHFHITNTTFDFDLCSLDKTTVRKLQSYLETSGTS
UCH37 inh – blocks the human deubiquitinase UCH37. Q9Y5K5. purified proteasome/UCH37, Ub-AMC cleavage fluorescence. inhibition, % (test concentration not listed). hit rate 0.33% among 330,000. AID 588478;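 active = mean of two replicates above 20%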;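 note: 0% = compound-free wells with enzyme and 100% = wells lacking proteasome; stock transfer was 100 nL into about 20 µL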
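Material: Human UCH37 enzyme supplied as purified proteasome complex | Schedule: 30 min compound-proteasome preincubation then 25 min substrate reaction, room temperature | Detection: AMC fluorescence from Ub-AMC cleavage, excitation 355 nm, emission 460 nm | Benchmarks: Wells without proteasome as full block, compound-free enzyme plus substrate as uninhibited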
FGF22 binding – FGF22 (human) thermal shift binding; Q9HCT0; recombinant FGF22 thermal shift, SYPRO orange fluorescence; percent of sucrose octasulfate shift, DMSO zero; calls only at 9.99 µM; hit rate 1.5% among 340,000;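 active = melting point raised past a set limit in the mean and every replicate; inconclusive = no clear call; three in four hits are not shown here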
Ecoli growth – blocks Escherichia coli growth. OD600, 23 h; hits give low values. OD600 absorbance (test concentration not listed). hit rate 0.21% among 330,000. AID 1053175;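 active = OD600 absorbance below the run mean of sample wells minus 3.6 SD, in any replicate, cut at about 0.56 in these data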;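 note: stock transfer was 300 nL into about 60 µL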
Vif TR-FRET – inhibitors of Vif binding to APOBEC3G peptide, primary screen, biochemical, TR-FRET, GST-Vif 1-94, biotin-A3G peptide, dose response retest (AID 1117319); inhibition, %; hits with a dose series show IC50 in µM; TR-FRET GST-Vif / biotin-A3G peptide binding; higher % means a stronger effect; test concentration not given here; strong numbers were not always called active; hit rate 0.57% among 260,000;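 active = above the screen mean plus three standard deviations and confirmed in dose response; inconclusive = results disagree or hit not tested in dose response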;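 note: Vif residues 1-94 fused to GST binding biotinylated APOBEC3G peptide 110-148; 0% = full assay without inhibitor and 100% = GST in place of GST-Vif; retest series ran down from 100 µM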
Active calls of the source: *. Only part of the results is shown. The share of hits here may be higher or lower than overall.

How did c1ccc(C(Cc2nc(-c3ccncc3)no2)c2ccccc2)cc1 do in these assays?
HNF4A DNA FP: 0.7; RanGTP-Impb inh: -0.4; UCH37 inh: 1.4; Ecoli growth: 0.73; Vif TR-FRET: 11%

What do the screens show for `O=C(O)CC1(CC(=O)Nc2ccc3ccccc3c2)CCCCC1`?
HNF4A DNA FP: -0.7; RanGTP-Impb inh: inconclusive; UCH37 inh: 0.1; Ecoli growth: 0.7; Vif TR-FRET: 2%

What do the screens show for `CCOc1cc(N2CCOCC2)c(OCC)cc1NC(=O)C1CC(=O)N(c2ccccc2OCC)C1` (stereo unspecified)?
HNF4A DNA FP: -3.3; AF4-AF9 inh: -6.1; UCH37 inh: 1.7; FGF22 binding: inactive; Ecoli growth: 0.68

Results for CCN(C(=O)c1cnc(OC)cc1C(F)(F)F)c1ccc(Cl)cc1Cl ?
HNF4A DNA FP: 0.3; RanGTP-Impb inh: 0.1; AF4-AF9 inh: -2.0; UCH37 inh: 2.5; FGF22 binding: inactive; Ecoli growth: 0.67

What do the screens show for `C=CCN1C(=O)C2C3C=CC(C2C1=O)C1C2C(=O)N(CC=C)C(=O)C2C31` (stereo unspecified)?
HNF4A DNA FP: 7.2; RanGTP-Impb inh: 2.5; AF4-AF9 inh: -9.3; UCH37 inh: -0.2; FGF22 binding: inactive; Ecoli growth: 0.66; Vif TR-FRET: 12%

How did CCN(c1ccc(OC)cc1)S(=O)(=O)N1CCCC(C(=O)NC(C)c2ccccc2)C1 (stereo unspecified) do in these assays?
HNF4A DNA FP: -3.4; AF4-AF9 inh: -3.8; FGF22 binding: inactive

Results for O=S1(=O)N=C(N(CCO)/N=C/C=C/c2ccccc2)c2ccccc21 ?
HNF4A DNA FP: 0.8; RanGTP-Impb inh: inconclusive; Vif TR-FRET: -1%

Results for Clc1ccc(-c2noc(/C=C/c3ccccc3)n2)cc1 ?
HNF4A DNA FP: -1.4; RanGTP-Impb inh: 3.8; UCH37 inh: 0.3; FGF22 binding: inactive; Ecoli growth: 0.7; Vif TR-FRET: -1%

What do the screens show for `COCCn1c(=NC(=O)c2ccco2)sc2cc(C(=O)OC)ccc21`?
HNF4A DNA FP: 2.6; RanGTP-Impb inh: -1.2; UCH37 inh: -35; Ecoli growth: 0.7

Results for CCOC(=O)CSCC(=O)N1CCC(Cc2ccccc2)CC1 ?
HNF4A DNA FP: 0.0; RanGTP-Impb inh: -1.8; AF4-AF9 inh: -0.7; UCH37 inh: -0.2; FGF22 binding: inactive; Ecoli growth: 0.65

Results for CC1CCN(C(=S)NC(=O)c2ccc(C(C)(C)C)cc2)CC1 ?
HNF4A DNA FP: -1.5; RanGTP-Impb inh: 3.6; AF4-AF9 inh: 1.1; UCH37 inh: 3.3; FGF22 binding: inactive; Ecoli growth: 0.72; Vif TR-FRET: 0%

What do the screens show for `CN(Cc1ccccc1)c1ncnc2[nH]ncc12`?
HNF4A DNA FP: 1.1; AF4-AF9 inh: 2.7; UCH37 inh: 3.3; FGF22 binding: inactive; Ecoli growth: 0.68; Vif TR-FRET: -14%

How did COC(=O)c1cc(S(=O)(=O)N2CCN(c3cccc(C)c3C)CC2)c[nH]1 do in these assays?
HNF4A DNA FP: 2.0; RanGTP-Impb inh: 2.3; AF4-AF9 inh: 8.1; UCH37 inh: 3.4; FGF22 binding: inactive; Ecoli growth: 0.76

Results for COC(=O)n1c(=O)oc2cc(S(=O)(=O)N3CCCCC3)ccc21 ?
HNF4A DNA FP: -0.8; RanGTP-Impb inh: -2.5; UCH37 inh: -0.9; Ecoli growth: 0.71; Vif TR-FRET: 7%

How did Cc1cc(C)c2oc(C(=O)Nc3ccc(S(=O)(=O)Nc4nccc(C)n4)cc3)cc(=O)c2c1 do in these assays?
HNF4A DNA FP: 1.8; RanGTP-Impb inh: 6.6; AF4-AF9 inh: -1.0; UCH37 inh: 5.1; FGF22 binding: inactive; Ecoli growth: 0.69

How did OC(COC(c1ccccc1)c1ccccc1)CN1CCN(c2ccccn2)CC1 (stereo unspecified) do in these assays?
HNF4A DNA FP: 1.1; RanGTP-Impb inh: -0.5; AF4-AF9 inh: 1.8; UCH37 inh: 1.1; FGF22 binding: inactive; Ecoli growth: 0.71; Vif TR-FRET: -14%

How did Cc1noc(C)c1CSCC(=O)Oc1ccc(N(C)S(=O)(=O)c2ccc(Cl)cc2)cc1 do in these assays?
HNF4A DNA FP: 1.3; RanGTP-Impb inh: 9.4; AF4-AF9 inh: 4.2; UCH37 inh: 4.9; FGF22 binding: inactive; Ecoli growth: 0.67; Vif TR-FRET: 3%

Results for CCCc1cc(=O)oc2cc(OCC(=O)NCCc3c[nH]c4ccccc34)ccc12 ?
HNF4A DNA FP: 0.8; RanGTP-Impb inh: 2.2; AF4-AF9 inh: -1.4; UCH37 inh: 1.8; FGF22 binding: inactive; Ecoli growth: 0.71

What do the screens show for `CCOC(=O)N1CCC(N(CCN(C)C)C(=S)Nc2cccc(Cl)c2)CC1`?
HNF4A DNA FP: 2.5; RanGTP-Impb inh: -4.1; AF4-AF9 inh: -33; UCH37 inh: 1.8; FGF22 binding: inactive; Ecoli growth: 0.69; Vif TR-FRET: 19%

What do the screens show for `COc1ccc(-n2c(C)c(C(C)=O)c3cc(O)ccc32)cc1`?
HNF4A DNA FP: 1.2; RanGTP-Impb inh: 7.4; UCH37 inh: 2.5; Ecoli growth: 0.68; Vif TR-FRET: 5%

How did COc1ccc(CCNC(=O)CCn2c(=O)c3cccn3c3cccnc32)cc1OC do in these assays?
HNF4A DNA FP: 0.3; RanGTP-Impb inh: -1.8; AF4-AF9 inh: 0.5; UCH37 inh: 1.2; FGF22 binding: inactive; Ecoli growth: 0.72

How did COc1ccc(C)cc1N(CC(=O)N1CCCC1)S(C)(=O)=O do in these assays?
HNF4A DNA FP: 9.1; RanGTP-Impb inh: 1.3; AF4-AF9 inh: -0.9; UCH37 inh: 5.7; FGF22 binding: inactive; Ecoli growth: 0.63; Vif TR-FRET: 1%

How did COC(=O)c1sc2nc(SCc3cccc(Cl)c3)n(N)c(=O)c2c1C do in these assays?
HNF4A DNA FP: 0.5; RanGTP-Impb inh: -1.4; AF4-AF9 inh: -2.2; UCH37 inh: -81; FGF22 binding: inactive; Ecoli growth: 0.7; Vif TR-FRET: -6%

How did COc1ccc(N2C(=O)CSC23C(=O)Nc2ccccc23)cc1OC (stereo unspecified) do in these assays?
HNF4A DNA FP: -2.1; RanGTP-Impb inh: 0.2; UCH37 inh: -0.1; Ecoli growth: 0.67; Vif TR-FRET: 19%

How did COc1cccc2c(=O)cc(C)n(CC(=O)Nc3ccc(C)c(C)c3)c12 do in these assays?
HNF4A DNA FP: 4.0; RanGTP-Impb inh: -3.6; UCH37 inh: -4.3; Ecoli growth: 0.75; Vif TR-FRET: 1%

Results for COc1ccc2[nH]cc(CCNC(=O)C3CCCO3)c2c1 (stereo unspecified) ?
HNF4A DNA FP: 1.5; RanGTP-Impb inh: -0.1; AF4-AF9 inh: 6.7; UCH37 inh: -2.2; FGF22 binding: inactive; Ecoli growth: 0.64; Vif TR-FRET: inconclusive

How did O=C(Nc1ccccc1Cl)c1cc[n+](Cc2ccc([N+](=O)[O-])cc2)cc1 do in these assays?
HNF4A DNA FP: 5.0; RanGTP-Impb inh: -0.3; AF4-AF9 inh: -0.3; UCH37 inh: 5.6; FGF22 binding: inactive; Ecoli growth: 0.68; Vif TR-FRET: 13%

How did CCc1noc(C)c1C(=O)N1CCCC(N2CCN(c3cccc(Cl)c3)CC2)C1 (stereo unspecified) do in these assays?
HNF4A DNA FP: 0.1; RanGTP-Impb inh: 0.4; AF4-AF9 inh: -0.3; FGF22 binding: inactive

What do the screens show for `O=C(COc1ccc(S(=O)(=O)N2CCOCC2)cc1)Nc1ccccc1F`?
HNF4A DNA FP: -0.6; RanGTP-Impb inh: 1.5; AF4-AF9 inh: 1.5; UCH37 inh: 3.0; Ecoli growth: 0.67; Vif TR-FRET: -4%

What do the screens show for `COCCn1nnnc1C(c1ccc(OC)cc1OC)N1CCN(c2ccccc2F)CC1` (stereo unspecified)?
HNF4A DNA FP: -0.7; RanGTP-Impb inh: 7.1; UCH37 inh: 2.3; Ecoli growth: 0.78; Vif TR-FRET: inconclusive

Results for COCCNC(=O)C1(C)Cc2c(-c3ccc4c(c3)OCO4)ccnc2O1 (stereo unspecified) ?
HNF4A DNA FP: -4.6; AF4-AF9 inh: 1.2; FGF22 binding: inactive

What do the screens show for `CCOc1ccc(CCNC(=O)C2CCN(S(=O)(=O)N3CC(C)CC(C)C3)CC2)cc1OCC` (stereo unspecified)?
HNF4A DNA FP: 3.2; RanGTP-Impb inh: 1.2; AF4-AF9 inh: -4.8; UCH37 inh: 3.9; FGF22 binding: inactive; Ecoli growth: 0.72

What do the screens show for `CCCCc1ccc(NC(=S)Nc2ccc(Nc3ccc(OC)cc3)cc2)cc1`?
HNF4A DNA FP: -0.4; RanGTP-Impb inh: -1.7; UCH37 inh: 3.4; Ecoli growth: 0.74

How did CCOC(=O)C(C(=O)NCc1ccc(F)cc1)c1ncc(C(F)(F)F)cc1Cl (stereo unspecified) do in these assays?
HNF4A DNA FP: 0.4; RanGTP-Impb inh: 4.0; UCH37 inh: 1.5; Ecoli growth: 0.74; Vif TR-FRET: 6%

Results for Cn1cc(S(=O)(=O)Nc2ccc3c(c2)OCCO3)cn1 ?
HNF4A DNA FP: 3.6; RanGTP-Impb inh: 3.3; AF4-AF9 inh: 0.3; UCH37 inh: 1.9; FGF22 binding: inactive; Ecoli growth: 0.67; Vif TR-FRET: -7%

Results for CCCOC(=O)Cn1cnc2scc(-c3ccc(C)cc3)c2c1=O ?
HNF4A DNA FP: -1.5; RanGTP-Impb inh: -0.4; AF4-AF9 inh: -5.4; UCH37 inh: 5.9; FGF22 binding: inactive; Ecoli growth: 0.68

What do the screens show for `Cc1nnc(-c2ccccc2)[nH]c1=O`?
HNF4A DNA FP: 0.1; RanGTP-Impb inh: -1.6; AF4-AF9 inh: 0.6; UCH37 inh: 0.0; FGF22 binding: inactive; Ecoli growth: 0.64; Vif TR-FRET: -11%

Results for Cc1[nH]n(C(C)(C)C)c(=O)c1Sc1ccccc1 ?
HNF4A DNA FP: -3.9; RanGTP-Impb inh: -2.8; UCH37 inh: 8.1; Ecoli growth: 0.67; Vif TR-FRET: 25%

How did O=S(=O)(Oc1ccccc1-c1ccccc1)c1ccccc1 do in these assays?
HNF4A DNA FP: -3.4; AF4-AF9 inh: 2.0; UCH37 inh: 4.0; FGF22 binding: inactive; Ecoli growth: 0.68; Vif TR-FRET: 3%

Results for NC(=O)c1oc2ccccc2c1NC(=O)CN1CCCCC1 ?
HNF4A DNA FP: 0.8; RanGTP-Impb inh: 6.2; UCH37 inh: 0.6; Ecoli growth: 0.63; Vif TR-FRET: 7%

What do the screens show for `O=C(Nc1nn[nH]n1)C12CC3CC(CC(C3)C1)C2`?
HNF4A DNA FP: -2.1; RanGTP-Impb inh: -0.7; UCH37 inh: 2.4; Ecoli growth: 0.67; Vif TR-FRET: 0%

How did CC(C(=O)N1CCOCCOCCOCC1)N1C(=O)c2ccccc2C1=O (stereo unspecified) do in these assays?
HNF4A DNA FP: 4.1; RanGTP-Impb inh: -3.8; AF4-AF9 inh: -2.7; UCH37 inh: -1.0; FGF22 binding: inactive; Ecoli growth: 0.71; Vif TR-FRET: -8%

Results for Clc1ccc2nc(C3CCCCC3)c(Cc3ccsc3)n2c1 ?
HNF4A DNA FP: -5.1; AF4-AF9 inh: 0.4; FGF22 binding: inactive

Screening data as filed in PubChem BioAssay.
